# Assay outcomes from PubChem BioAssay.
# NPYLR7 ag: mosquito NPYLR7 agonism. AID 1259423. activation, % at 10 µM. HEK293T NPYLR7/Galpha15, GCaMP6s calcium fluorescence. 0.15% of 270,000 active; in the data active = activation above about 40%;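 also: 0% = vehicle and 100% = reference agonist at the receptor; some compounds past the cut are filed as inactive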
# NPYLR7 ag max-min: also measured in NPYLR7 ag; calls as there; activation, %; measured here: Max-Min RFU normalised activation; some inactives read as strong as hits;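 span of the calcium signal over five minutes; 0% = vehicle and 100% = native peptide agonist; compound fluorescence can raise it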
# The depositor's hits bear a star; & = joins results of further samples.
# The first 6 entries (preview)
nr	Structure	NPYLR7 ag	NPYLR7 ag max-min
1	CC(Sc1nnc(-c2ccc(C(C)(C)C)cc2)n1C1CCCC1)C(N)=O (stereo not given)	9	2
2	COc1ccc(C)cc1-n1cnnc1CCn1cccn1	-1	-10
3	CC(=O)Nc1nc(C)c(S(=O)(=O)N2CCN(c3c(-c4ccccc4)cnc4ncnn34)CC2)s1	8	10
4	Nc1[nH]nc2nc(-c3ccccc3)c3c(c12)CCC3	6	0
5	NC(=O)CCSc1ncnc2scc(-c3ccccc3)c12	7	9
6	COc1ccc(C=CC(=O)c2ccc(OCC(=O)N(C)C)cc2)cc1OC	5	2

# All compounds of this part, from the first entry:
nr	Structure	NPYLR7 ag	NPYLR7 ag max-min
1	CC(Sc1nnc(-c2ccc(C(C)(C)C)cc2)n1C1CCCC1)C(N)=O (stereo not given)	9	2
2	COc1ccc(C)cc1-n1cnnc1CCn1cccn1	-1	-10
3	CC(=O)Nc1nc(C)c(S(=O)(=O)N2CCN(c3c(-c4ccccc4)cnc4ncnn34)CC2)s1	8	10
4	Nc1[nH]nc2nc(-c3ccccc3)c3c(c12)CCC3	6	0
5	NC(=O)CCSc1ncnc2scc(-c3ccccc3)c12	7	9
6	COc1ccc(C=CC(=O)c2ccc(OCC(=O)N(C)C)cc2)cc1OC	5	2
7	c1ccc2c(c1)SCCC2NCc1ccc(-n2ccnc2)cc1 (stereo not given)	1	1
8	CC(C)c1nc2sc3c(NCCCO)ncnc3c2c2c1CCCC2	7	3
9	CC(C(=O)Nc1sccc1C#N)N1CCN(c2ccccc2)CC1 (stereo not given)	-10	-9
10	COc1cccc(C2c3c(oc4ccc(C)cc4c3=O)C(=O)N2c2nccs2)c1OC (stereo not given)	6	4

# Brought forward from above: 3 compounds, then new ones.
nr	Structure	NPYLR7 ag	NPYLR7 ag max-min
8	CC(C)c1nc2sc3c(NCCCO)ncnc3c2c2c1CCCC2	7	3
9	CC(C(=O)Nc1sccc1C#N)N1CCN(c2ccccc2)CC1 (stereo not given)	-10	-9
10	COc1cccc(C2c3c(oc4ccc(C)cc4c3=O)C(=O)N2c2nccs2)c1OC (stereo not given)	6	4
11	Cc1cc(Cl)ccc1OCCCC(=O)N1CCN(c2ccccc2)CC1	0	3
12	CN(Cc1n[nH]c2c1CCCC2)C(=O)C1CCC(=O)N(CCCc2ccccc2)C1 (stereo not given)	1	1
13	CC(=O)Nc1cc(NC(C)=O)[nH]n1	2	5
14	CSc1ccc(C2CC(c3cccs3)=Nc3ncnn32)cc1 (stereo not given)	124*	99*
15	Cc1ccccc1-c1noc(CCC(=O)N(C)CC(C)N2CCOCC2)n1 (stereo not given)	15	14
16	Cc1cc(=O)c(OCc2ccccc2F)cn1CC(N)=O	2	1
17	COC(=O)c1cc2c(c(S(=O)(=O)Nc3ccc(OC(C)C)cc3)c1)CCC2	3	13
18	COc1cccc(CC2CN(c3cc(C(N)=O)ccn3)CCO2)c1 (stereo not given)	0	-3
19	CCN(CC)c1ccc(C=NN2CCN(Cc3ccc(C)cc3C)CC2)cc1	0	-4
20	Oc1oc(-c2ccccc2)nc1C=Nc1ccc(Br)cc1	8	7
21	CN1[C@H]2CC[C@@H]1CN(C(=O)COCC(F)(F)C(F)F)CC2	2	1
22	O=c1cccnn1CCCNS(=O)(=O)c1ccc2c(c1)OCCO2	-11	-14
23	CNC(=O)N(C)C(=O)c1cnc2snc(C)c2c1	2	2
24	COc1ccc(S(=O)(=O)C(F)(F)F)cc1NC(=O)C1(C#N)CCCC1	-6	-8
25	COc1ccc2c(c1OC)C(=O)OC2Nc1ccc(I)cc1 (stereo not given)	2	-1
26	CCc1csc(CCNC(=O)C2CCC(=O)N(CCN3CCOCC3)C2)n1 (stereo not given)	-2	-4
27	N#Cc1ccc(-c2cccnc2)nc1SCC(=O)c1ccccc1	-3	-6
28	CSc1ncccc1C(=O)N1CCN(c2nccc(-c3ccc(Oc4ccccc4)cc3)n2)CC1	5	0
29	Cc1cccc(N(C)c2cc(-c3ccccc3N(C)C)nc3ccnn23)c1	-4	-8
30	CC(=O)c1cccc(NC(=O)c2cccc(CN(C)C3CCOCC3)c2)c1	-2	-4

# Reformatted screen by screen: entries from further up.
22: O=c1cccnn1CCCNS(=O)(=O)c1ccc2c(c1)OCCO2
23: CNC(=O)N(C)C(=O)c1cnc2snc(C)c2c1
24: COc1ccc(S(=O)(=O)C(F)(F)F)cc1NC(=O)C1(C#N)CCCC1
25: COc1ccc2c(c1OC)C(=O)OC2Nc1ccc(I)cc1 (stereo not given)
26: CCc1csc(CCNC(=O)C2CCC(=O)N(CCN3CCOCC3)C2)n1 (stereo not given)
27: N#Cc1ccc(-c2cccnc2)nc1SCC(=O)c1ccccc1
28: CSc1ncccc1C(=O)N1CCN(c2nccc(-c3ccc(Oc4ccccc4)cc3)n2)CC1

Screen / compound no. | 22 | 23 | 24 | 25 | 26 | 27 | 28
NPYLR7 ag | -11 | 2 | -6 | 2 | -2 | -3 | 5
NPYLR7 ag max-min | -14 | 2 | -8 | -1 | -4 | -6 | 0

# (continued)
nr	Structure	NPYLR7 ag	NPYLR7 ag max-min
31	COCCCN(CC(=O)N1CCc2sccc2C1c1ccc(Cl)cc1)C(=O)c1ccco1 (stereo not given)	-12	-10
32	C#CCSc1nnc(-c2ccccc2)c2sc(C)nc12	0	-2
33	CC(=O)Nc1ccc(NC(=O)CC(NCCC2=CCCCC2)C(=O)O)cc1 (stereo not given)	-3	-4
34	CCCCN(CC(=O)N1CC(=O)N(c2cccc(Cl)c2)C1)C(=O)c1ccccc1	-4	5
35	CCN(CC)CCN(C(=O)c1cc(Cl)sc1Cl)c1nc2cc3c(cc2s1)OCO3	-5	-8
36	Cc1ccsc1C(=O)N1CCC1(C)C(=O)Nc1cccc2cccnc12 (stereo not given)	-5	-3
37	CCCCc1ncc(C2CC(=O)Nc3c2cnn3CCC(C)C)[nH]1 (stereo not given)	14	12
38	COCCNC(=O)CNC(=O)COc1ccc2c3c(c(=O)oc2c1)CCC3	-6	-7
39	CCCCc1nc2c(c(=O)[nH]1)C(C)(C)Cc1ccccc1-2	16	13
40	C=CCN(CC=C)c1nc(-c2cccc(Cl)c2Cl)nc2ccccc12	0	6
41	CC(C)(C)OC(=O)N1CCC(Oc2ccc(NC(=O)c3c(F)c(F)c(F)c(F)c3F)cc2)C1 (stereo not given)	-8	-15
42	COCc1c(Br)c(C)nc(OCC(=O)N/N=C\c2cc([N+](=O)[O-])cc([N+](=O)[O-])c2O)c1C#N	-11	-20
43	O=C(Nc1ccccc1F)N1CCC(Cc2ccc(C(F)(F)F)cc2)CC1	-3	-7
44	COc1cc2c(cc1OC)-c1nnc(C)n1C(C)(C)C2	1	1
45	CC(=O)O[C@@H]1CC2C(C)(C)C(=O)[C@@H]3O[C@@H]3[C@]2(C)C2CC[C@]3(C)C(=CC(=O)O[C@H]3c3ccoc3)[C@@]21C (stereo not given in full)	17	16
46	CCc1ncc(CNCc2cccnc2Oc2cccc(C(F)(F)F)c2)cn1	3	-1
47	Cc1ccccc1Cn1nnc(C(=O)Nc2ccc(C(C)C)cc2)c1N	-2	2
48	Cc1c(NC(=O)c2oc3ccccc3c2C)cccc1[N+](=O)[O-]	-4	-7
49	Cc1c(C(=O)NCc2cccc3ccccc23)cnc2c(-c3ccc(C(C)C)cc3)cnn12	4	-7
50	CC(C)C1=NOC(CNC(=O)c2cn[nH]c2C2CCCCC2)C1 (stereo not given)	0	-1
51	O=C([C@@H]1C[C@@H](O)CN1)N1CCc2onc(C(c3ccccc3)c3ccccc3)c2C1	0	26
52	CC(C)c1cc2c(=O)[nH]c(CN(Cc3ccccc3)CC(O)CN3CCOCC3)nc2s1 (stereo not given)	-2	2
53	CCCCC(=O)N(C)c1c(C)nc2ccc(C(=O)NCCN(C)C)cn12	-7	-14
54	CN(CCOc1ccccc1F)CC(=O)Nc1ccccc1C(N)=O	1	-1
55	Cc1ccc(CS(=O)Cc2cccc(Cl)c2)cc1 (stereo not given)	19	23
56	COc1ccc(CNC(=O)N2CCCC2)c(C(F)(F)F)c1	10	5
57	O=C(CSc1nc2c(c(=O)n1-c1ccc(Cl)cc1)SCC2)Nc1nccs1	4	7
58	Cc1ncoc1C(=O)N1CCCC(N2CCN(Cc3ccc4c(c3)OCO4)CC2)C1 (stereo not given)	3&1	3&1
59	COc1cccc(-c2[nH]ncc2CNCc2ccccc2)c1	-5	-5
60	CC(CC(=O)N1CCN(C(=O)N(C)C)CC1)Cc1cccc(F)c1 (stereo not given)	3	1
61	C=CCNc1ccccc1C(=O)N1CC[C@H](O)C[C@@H]1C(=O)O	-7	-14
62	Cc1cccc(CSc2ccc(-c3sc(C)nc3C)nn2)c1	1	-4
63	Cc1ccc(CNC(=O)Nc2c(C)n(-c3ccccc3)c(=O)n2C)cc1	14	7
64	COc1ccccc1-c1cc(C(=O)NC2(c3ccccc3)CCC2)no1	8	5
65	CC(=O)Oc1ccc2nc(-c3cc([N+](=O)[O-])ccc3Cl)oc(=O)c2c1	2	9
66	O=C(NCCc1ncn[nH]1)C1(c2ccc(Cl)cc2)CCC1	-2	-4
67	CN1C(=O)NC(c2ccccc2Cl)C2=C1CN(CCC(=O)NCCc1ccccc1)C2=O (stereo not given)	1	10
68	CC1(C)C[C@@H]2C[C@@](C)(CN2c2ccnc(C(=O)NCc3cccnc3)c2)C1	9	9
69	Cc1nc(C2CC2)ncc1C(=O)N(C)Cc1ccc2nsnc2c1	4	4
70	O=c1cc(CSc2nc3ncc(Cl)cc3[nH]2)nc2ccc(Br)cn12	2	2
71	CCCOC(=NCCCN(C)C)NC(=O)c1ccco1	-6	-7
72	Cc1ccc(C2(O)CCN(C(=O)CCC(=O)N3CCCCCC3)CC2)nc1	-2	2
73	Cc1cccc(C(=O)NC(C(=O)NCc2ccco2)C2CCN(C(=O)CCc3ccccc3)CC2)c1 (stereo not given)	-1	7
74	Cc1cc(N2CCOCC2)c2c(N)c(C)cc(C)c2n1	-2	-3
75	Cc1cc(C(C)(C)C)cc(C)c1S(=O)(=O)NC1CCN(C(=O)c2ccccc2)CC1	10	9
76	O=C1C2C3C=CC(C3)C2C(=O)N1c1cccc(Cl)c1Cl (stereo not given)	-1	-7
77	O=C(CSc1ccccc1)Nc1c(F)cccc1F	0	-3
78	CCc1nc2ccc(C(=O)NC3CCN(C)CC3)cn2c1N(C)Cc1cccs1	5	-9
79	CCOc1ccc(C2CC(c3ccccc3Cl)=NN2C(=O)CN2CCN(c3ccccc3F)CC2)cc1 (stereo not given)	3	4
80	COc1cccc(CNC(=O)C2(C)CCCN2C(=O)C(C)C)c1 (stereo not given)	4	1

# (more compounds)
nr	Structure	NPYLR7 ag	NPYLR7 ag max-min
81	CCOC(=O)CC(=O)N1CCC(n2cnc3ccc(F)cc32)CC1	4	3
82	Cc1cc(CNC(=O)CCN2c3ccccc3CCC2C)no1 (stereo not given)	-6	-6
83	CCC(CO)n1cc(C(=O)/C=C/c2ccccc2)c(=O)[nH]c1=O (stereo not given)	10	14
84	O=C(c1ccccc1-n1cncn1)N1CCC2(CC1)C(=O)Nc1ccccc12	7	4
85	CC1CCCN(C(=O)CSc2nnc(Nc3ccccc3)s2)C1 (stereo not given)	3	-2
86	CC1CCCCC1NC(=O)CN1C(=O)NC(C)(c2ccc3c(c2)OCCO3)C1=O (stereo not given)	9	3
87	COc1ccccc1-c1csc(NC(=O)CC2C(=O)Nc3ccccc32)n1 (stereo not given)	-1	-4
88	C(=NNC1=NCCCCC1)c1c2ccccc2cc2ccccc12	9	17
89	CCOC(=O)c1c(NC(=O)COCCOC)c(-c2ccc3c(c2)OCO3)cn1C	4	2
90	Cc1ncc2c(c1-c1noc(C(C)Oc3cccc(Cl)c3)n1)CCNC2 (stereo not given)	-1	-2
91	CCc1c(C)nc(-n2nc(C)cc2NC(=O)c2ccccc2C(F)(F)F)[nH]c1=O	-3	-6
92	COCCCNC(=O)c1nn(-c2cc(C)cc(C)c2)c(=O)n(Cc2ccccc2C)c1=O	7	9
93	CC(NC(=O)COC(=O)c1cncc(Br)c1)c1ccc2c(c1)OCO2 (stereo not given)	2	2
94	CC(C)CN(C(=O)CN(C)C(=O)CC1CCCC1)c1c(N)n(CC(C)C)c(=O)[nH]c1=O	1	0
95	CCOc1ncccc1CN1CCC(C(=O)N2CCCCC2)CC1	4	4
96	CCn1nc(C)cc1C(=O)N1CCC(CCC(=O)Nc2ccc3c(c2)OCCO3)CC1	3	1
97	CCOC(=O)c1nc2cc3n(c(C)c-2c1C)C(C)C(CCC(=O)O)=C3C (stereo not given)	11	9
98	O=C1NC(=Nc2ccccc2Cl)S/C1=C/c1cccnc1	-8	-9
99	CCc1nc2ccc(C(=O)Nc3cccc(NS(C)(=O)=O)c3)cn2c1N(CC)Cc1ccc(OC)c(OC)c1	-4	3
100	COc1ccc2c(c1)C(NC(=O)c1noc(C)c1CO)CC(C)(C)O2 (stereo not given)	-4	-7
101	CC(C)C(C)NC(=O)Cn1nnc(-c2ccccc2)n1 (stereo not given)	4	-1
102	CCC(=O)Nc1ccc(OCC(=O)N(C)Cc2csc(C)n2)cc1	-18	-20
103	Cc1cccc(=O)n1CCC(=O)N1CCC2(CC1)c1ccccc1[C@@H](N)[C@@H]2O	-1	-4
104	Cc1nc2c(OCc3ccc(OC(F)F)cc3)cccn2c1N(C)C(=O)CCC1CCCC1	-13	-18
105	CC(C)n1c(=O)c(C(=O)NCc2ccncc2)cc2cccnc21	6	4
106	Cc1ccccc1OCc1n[nH]c(=S)n1-c1ccccc1	-6	-11
107	Cc1nc2ccc(Cl)cn2c(=O)c1NC(=O)c1c(F)cccc1Cl	4	1
108	CCc1ccc(S(=O)(=O)Nc2cc(-c3cn4nc(OC)ccc4n3)ccc2C)s1	-11	-17
109	COc1c(C)cnc(CN(C)C(=O)c2ccc(-n3cnnc3)cc2)c1C	22	12
110	Cc1ccc(-c2nnc(CN3CCN(c4cc(Nc5ccccc5)nc(N)n4)CC3)o2)cc1	2	8
111	Cc1ccc(Cc2nc(N3CCN(C(=O)/C=C/c4ccccc4)CC3)c3c(C)nn(-c4ccc(F)cc4)c3n2)cc1	-9	4

# An excerpt. The share of hits here may be higher or lower than overall.
